RN4220 kill: growth inhibition of S. aureus RN4220, primary screen, OD600 | actives 0.33% (n = 330,000) | 16 h | AID 1259311, 2017 | inhibition, % (no concentration beside the values);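 active = z-score of -3 or lower and OD600 up to 0.18 on both plates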;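 also: plate controls were untreated cells for no effect and reference antibiotic for full effect; stock transfer was 100 nL into about 80 µL; one replicate is shown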
Autofluor counter: flagged as autofluorescent in microsphere protease counterscreen; compound autofluorescence counterscreen, microsphere flow cytometry; hits give high values; fluorescence intensity (concentration not given with the values); actives 3.1% (n = 360,000);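 active = at least 3 SD above the mean of all compounds, about 16000 in these data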;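 also: 100 nL of 1 mM stock went into each well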
Sa ugtP lethal: growth inhibition of ugtP-null S. aureus, primary screen, RN4220 ugtP deletion, OD600 | AID 1259309, 2017 | growth inhibition, % (concentration not given with the values) | 16 h; some inactives read as strong as hits | actives 0.54% (n = 330,000);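 active = z-score under -3 and OD600 up to 0.15 on both plates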;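 also: plate controls were untreated wells for no effect and antibiotic for full effect; wells of about 80 µL received 100 nL stock; the first replicate is given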
PrP 5UTR inh: inhibition of PrP 5' UTR reporter expression. cell-based PrP 5' UTR mRNA reporter, plate reader. inhibition, % (concentration not given with the values). actives 0.35% (n = 340,000);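 active = every replicate at 50% or more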;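 also: 0 = median of the neutral control wells; tested in H4 reporter cells; numbers are from one replicate; inactives centre near -14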
BJeLR lethal: MLPCN primary cell-based screen for lethality selective to Ras in HRASV12 cells | BJeLR (HRASV12) viability, CellTiter-Glo ATP luminescence, 48 h; reference of the scale not given here | actives 0.17% (n = 300,000) | inhibition, % (test concentration not listed);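 active = replicate mean above 50%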;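 also: 50 nL library stock added to about 25 µL; numbers are from one replicate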
Mtb hypoxia inh: PubChem AID 1159583 | M. tuberculosis hypoxia-regulated fluorescent reporter, fluorescence | fluorescence inhibition, % (no concentration beside the values) | actives 0.1% (n = 300,000);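 active = 35 to 45% if threefold the growth effect, above 45% if 1.5-fold the growth effect; inactive = the rest, general growth blockers included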;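 also: wells of about 50 µL received 100 nL stock; 0% = vehicle wells and 100% = reference inhibitor wells; whole bacteria with a GFP reporter of the hypoxia response; strong numbers were not always called active; many hits fall short of the cut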
Mtb hypoxia inh growth: also measured in Mtb hypoxia inh; calls as there; growth inhibition, %; measured here: M. tuberculosis growth (absorbance);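 0% = vehicle and 100% = reference antibiotic; read after six days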
* marks the source's active call; other numbers are inactive results; · = not tested or not shown.

SMILES | RN4220 kill | Autofluor counter | Sa ugtP lethal | PrP 5UTR inh | BJeLR lethal | Mtb hypoxia inh | Mtb hypoxia inh growth
Cc1noc(C)c1NC(=O)NC(c1ccccc1)c1ccccc1 | -1.4 | 3321 | -4 | -16 | 7 | -3 | 9
COc1cc(C(=O)OCC(=O)NC2CCCC2)cc(NC(=O)c2ccco2)c1OC | 2.8 | 20665* | -4 | -43 | · | 1 | 3
CCc1ccccc1NC(=O)CN(C)C(=O)CSc1nnc(Nc2cccc(C)c2C)s1 | 7.0 | 2005 | -3 | -23 | -2 | 3 | 4
CCOC(=O)C1(C(F)(F)F)N=C(N(C)C)OC(N(C)C)=N1 | 5.7 | 2190 | -1 | -19 | -3 | · | ·
CCN(C(=O)c1ccc2c(Cl)c3c(nc2c1)CCC3)c1ccc(C)c(C)c1 | -6.9 | 5940 | 9 | -8 | -3 | 6 | 12
O=C(CC1SC2=NCCN2C1=O)Nc1ccc(Cl)cc1 (configuration not stated) | -1.5 | 17758* | 0 | -14 | -8 | -2 | -5
CCOC(=O)c1[nH]c2cc3c(cc2c1CCCN1C(=O)c2ccccc2C1=O)OCCO3 | 2.5 | 19746* | -22 | -21 | -1 | 1 | 9
Cc1cccc(NC(=O)CSCC(=O)N2CCN(c3cccc(C(F)(F)F)c3)CC2)c1 | -0.4 | 3920 | 9 | -8 | · | 1 | 7
Cc1ccc(S(=O)(=O)Nc2nc3ccccc3nc2NCC2CCCO2)c(C)c1 (configuration not stated) | 6.0 | 5745 | 11 | -9 | -4 | 11 | 10
CCCSc1nc2c(cnn2-c2ccc(C)cc2)c(=O)[nH]1 | 0.5 | 4281 | 12 | -7 | 8 | 5 | 6
COc1ccc(CC(=O)OCC(=O)Nc2ccc(C(=O)Nc3ccc(OC)cc3)cc2)cc1 | 1.3 | 4856 | -2 | -28 | -4 | 8 | 3
COc1ccccc1CC1CC(=O)N(c2cccc(Cl)c2C)C1=O (configuration not stated) | 3.3 | 3221 | 3 | 2 | 0 | 11 | -3
COc1ccc(CNS(=O)(=O)c2cc(-c3cc(C)no3)ccc2OC)cc1OC | 1.0 | 5148 | 10 | -15 | -1 | 4 | 4
C#Cc1ccc([C@H]2C=C(C(=O)N3CCN(Cc4ccccc4)CC3)O[C@@H](OCC)[C@@H]2CCCO)cc1 | · | 4182 | · | 0 | 5 | · | ·
Cc1cccc(NC(=O)C2COc3ccccc3O2)c1 (configuration not stated) | 3.3 | 3752 | 7 | -60 | -11 | 12 | 6
CC(=O)N1CCN(c2ccc(NC(=O)c3ccco3)cc2Cl)CC1 | -1.0 | 4385 | 1 | -15 | -9 | -2 | 0
CCN1CCN(CCn2c(=S)[nH]c3ccccc3c2=O)CC1 | 1.6 | 3557 | 4 | -1 | 6 | · | ·
Cc1cccc(NS(=O)(=O)Cc2ccccc2)n1 | 5.8 | 4718 | -6 | -8 | 8 | · | ·
O=C(CN1N=C(c2ccccc2)CCC1=O)NCCCN1CCc2ccccc2C1 | 4.3 | 2365 | 3 | -10 | 0 | 17 | 3
O=C(O)Cn1cc(/C=C2/NC(=O)N(c3ccc(Cl)cc3)C2=O)c2ccccc21 | -13 | 5987 | -9 | -25 | -29 | 2 | -1
CC(=O)OCC(=O)[C@@]1(O)CCC2C3CCC4=CC(=O)C=C[C@]4(C)C3C(O)C[C@@]21C (some centres not stated) | 4.1 | · | -6 | · | · | -18 | -2
CCOC(=O)N1CCN(c2nc(-c3ccccc3)c3ccccc3n2)CC1 | 3.4 | 4044 | -4 | -26 | 16 | 2 | -10
Cc1cc(C)cc(N2CC(O)Cn3c2nc2c3c(=O)[nH]c(=O)n2C)c1 (configuration not stated) | 5.6 | 3930 | 13 | -16 | -12 | 13 | -5
Cc1cc(C(=O)NNC(=O)COc2ccccc2Cl)n[nH]1 | 1.3 | 4931 | 4 | 2 | 4 | -3 | -5
CC(=O)Nc1ccc(NC(=O)C/C(C)=N/NC(=O)COc2cc(C)c(Br)cc2Br)cc1 | · | 3719 | · | -22 | -6 | · | ·
SMILES | RN4220 kill | Autofluor counter | Sa ugtP lethal | PrP 5UTR inh | BJeLR lethal | Mtb hypoxia inh | Mtb hypoxia inh growth
COc1ccc2cc3c(N)nn(C(=O)c4ccccc4Cl)c3nc2c1 | 0.8 | 3696 | -4 | 58* | -2 | -8 | 12
COCCN(C(=O)CSc1nnc(-c2ccccc2C)n1C)c1c(N)n(Cc2ccccc2)c(=O)[nH]c1=O | -1.5 | 5228 | 9 | -21 | -7 | 7 | 6
Cc1ccc(-c2nnc(CSc3nnc(C)s3)o2)cc1 | 8.0 | 22331* | 2 | -38 | -5 | 8 | 4
COc1ccccc1NC(=O)c1ccccc1SC | 2.0 | 4832 | -5 | -3 | -1 | · | ·
O=C(Nc1nc2c(F)cc(F)cc2s1)C1CCN(C(=O)c2ccc(F)cc2)CC1 | 2.4 | 6329 | 10 | -53 | -1 | 9 | 2
Cc1ccccc1CN1CCN(Cc2ccccc2)CC1 | 0.6 | 1870 | 7 | 0 | -5 | -1 | 1
COc1ccc(N(C(=O)CCl)C(C(=O)NC2CCCCC2)c2cccnc2)cc1 (configuration not stated) | 9.4 | 2406 | -2 | -11 | 81* | · | ·
CCc1nnc(NS(=O)(=O)c2ccc(N/C=C\C(=O)c3ccc4ccccc4c3)cc2)s1 | 9.4 | 2540 | 47 | -2 | -14 | 5 | 9
Cc1ccc(NC(=O)c2sccc2C)cc1[N+](=O)[O-] | 4.0 | 1845 | -11 | -99 | -10 | 7 | 7
CC(=O)N1c2ccc(S(=O)(=O)N3CCC(C(=O)NCCc4ccc(Cl)cc4)CC3)cc2CC1C (configuration not stated) | 1.8 | 6096 | 8 | -9 | -9 | 14 | 8
COC(=O)c1cc(S(=O)(=O)N2CCN(Cc3ccccc3)CC2)c[nH]1 | 4.2 | · | 4 | -18 | 5 | 4 | -4
COc1cccc(C(=O)C2CCCN(C3CCOCC3)C2)c1 (configuration not stated) | 2.7 | 2587 | 5 | 4 | -7 | 5 | 4
Cc1ccc(S(=O)(=O)CCSC(=N)N)cc1 | 4.0 | 2573 | 2 | -11 | -4 | 14 | 2
N#Cc1nc(-c2ccc(OCc3ccccc3Cl)cc2)oc1NCCCn1ccnc1 | -5.0 | · | -3 | · | 0 | -3 | 7
O=C(CSc1ncn[nH]1)NC1CCCc2ccccc21 (configuration not stated) | 4.3 | 4532 | 10 | -22 | -9 | 5 | 0
C=CCn1c(C)cc(C(=O)COC(=O)COc2ccccc2C#N)c1C | -1.8 | 10472 | 3 | -12 | -13 | 6 | 5
CCN(CC(=O)Nc1ccc(NC(C)=O)cc1)C(=O)c1cccc(-n2cccc2)c1 | 2.5 | 4310 | 9 | -16 | 6 | 3 | 3
COc1cc(C(=O)OCC(=O)c2ccccc2)cc2c1OCCO2 | 7.4 | 6156 | 14 | -9 | · | -4 | -6
O=C(Nc1ccccc1F)c1cc(S(=O)(=O)N2CCOCC2)ccc1N1CCOCC1 | 0.2 | 5693 | 2 | -14 | · | 3 | 8
O=c1[nH]c(Nc2ccccc2Cl)cc2ccccc12 | -0.9 | 4265 | 0 | -43 | 2 | -2 | -5
COc1ccc(-n2nc3cc(C)c(N)cc3n2)cc1Cl | 4.0 | 3468 | -3 | -51 | -1 | -6 | 6
Cc1cc(CC(=O)O)c(C)cc1CC(=O)O | -13 | 3283 | 3 | -33 | -1 | 17 | 5
COc1ccc(C(=O)CC(c2ccccc2)C2CCCCC2=O)cc1 (configuration not stated) | 2.0 | 10874 | 11 | -8 | -1 | 1 | 4
CN(CC(=O)Nc1ccc(Cl)cc1)C(=O)c1ccc(COc2ccccc2)cc1 | 5.3 | 3573 | 12 | -28 | · | 9 | 12
COc1ccccc1NC(=O)c1ccc(-n2cncn2)nc1 | 1.1 | 2388 | 1 | -25 | -5 | -5 | 2

Compound profiles (already shown):
O=c1[nH]c(Nc2ccccc2Cl)cc2ccccc12 reads RN4220 kill: -0.9; Autofluor counter: 4265; Sa ugtP lethal: 0; PrP 5UTR inh: -43; BJeLR lethal: 2; Mtb hypoxia inh: -2; Mtb hypoxia inh growth: -5
Cc1ccccc1CN1CCN(Cc2ccccc2)CC1 reads RN4220 kill: 0.6; Autofluor counter: 1870; Sa ugtP lethal: 7; PrP 5UTR inh: 0; BJeLR lethal: -5; Mtb hypoxia inh: -1; Mtb hypoxia inh growth: 1

Returning to the listing, repeating the 3 entries before the break.
SMILES | RN4220 kill | Autofluor counter | Sa ugtP lethal | PrP 5UTR inh | BJeLR lethal | Mtb hypoxia inh | Mtb hypoxia inh growth
COc1ccc(C(=O)CC(c2ccccc2)C2CCCCC2=O)cc1 (configuration not stated) | 2.0 | 10874 | 11 | -8 | -1 | 1 | 4
CN(CC(=O)Nc1ccc(Cl)cc1)C(=O)c1ccc(COc2ccccc2)cc1 | 5.3 | 3573 | 12 | -28 | · | 9 | 12
COc1ccccc1NC(=O)c1ccc(-n2cncn2)nc1 | 1.1 | 2388 | 1 | -25 | -5 | -5 | 2
CN(C(=O)CSc1nc2cc(C(=O)O)ccc2c(=O)n1Cc1ccccc1)C1CCS(=O)(=O)C1 (configuration not stated) | -1.6 | 4348 | 2 | -16 | 1 | -2 | -5
CCC(=O)Nc1cc(NC(=O)CSc2ncc(-c3ccc(F)cc3)n2Cc2ccco2)ccc1C | -3.1 | 4832 | 11 | -82 | -6 | 7 | 2
CCOC(=O)c1ccc2[nH]c(C)cc(=O)c2c1 | 26 | 2510 | 15 | -2 | -5 | -3 | -7
COc1ccccc1NC(=O)N1CCCC(CNC(=O)c2ccccc2Cl)C1 (configuration not stated) | 0.6 | 5412 | 1 | 3 | -3 | 6 | 2
OCCNC(=S)NC1CCCCC1 | 5.7 | 3054 | 8 | -16 | 1 | 8 | 2
CN(C(=O)COc1nnc(-c2cccs2)c(-c2cccs2)n1)c1ccccc1 | -5.9 | 2684 | 4 | 1 | 3 | · | ·
CC(=O)Cc1nsc(NC(=O)c2ccc(Br)o2)n1 | 4.1 | 9916 | -2 | -16 | 1 | 8 | 6
COc1ccc(Cc2nnc(NC(=O)CSc3ccc(C)cc3)s2)cc1 | 0.9 | 2436 | 1 | -16 | -5 | 3 | 0
CC(=O)C1=C(O)C(=O)N(c2cccnc2)C1c1cccc([N+](=O)[O-])c1 (configuration not stated) | -4.7 | 5617 | 0 | -24 | -2 | 20 | 29
S=C(Nc1ccc(Nc2ccccc2)cc1)NC1CCCCCC1 | -6.0 | 3246 | -22 | -25 | 14 | -7 | -1
COc1ccc(CNC(=O)C2CCCN(S(=O)(=O)c3cc(C)ccc3OC)C2)cc1 (configuration not stated) | 1.5 | 11027 | -1 | -10 | 9 | 1 | 15
NC1=NC(=O)/C(=C\c2cccnc2)S1 | 0.6 | 3257 | 6 | -4 | 9 | 14 | -1
COc1ccc(CCNC(=O)CSc2nnc(CNC(=O)c3cccs3)o2)cc1OC | 1.0 | 2435 | 10 | 8 | 0 | · | ·
O=C(CN1CCN(c2ccc(O)cc2)CC1)N(C1CC1)C1CCS(=O)(=O)C1 (configuration not stated) | 3.2 | · | 1 | -29 | · | 14 | 4
CCN(C(C)=O)N(CC)c1nc(Cl)nc(NC(C)C)n1 | 3.3 | 2130 | -1 | -2 | 8 | -5 | -7
O=C(Nc1cccc(F)c1)N1CCCCCC1 | -0.2 | 5137 | -1 | -21 | 1 | 6 | 7
CN1CCN(C(=S)c2ccc(-c3cccc([N+](=O)[O-])c3)o2)CC1 | 3.5 | 3595 | 3 | -108 | -11 | 6 | 9
Cc1cccc(NC(=O)C2CCCN(c3cnccn3)C2)c1 (configuration not stated) | 1.9 | 5478 | 2 | -18 | -8 | 10 | 8
C/C(=N\NC(=S)NCc1ccccc1)c1ccc(C(C)(C)C)cc1 | · | 2014 | · | 7 | -11 | · | ·
COc1ccc(NC(=O)Nc2ccc3c(c2)N(C)C(=O)CS3)cc1Cl | -3.7 | 4778 | 8 | -2 | -2 | -9 | 10
Cc1ccnc(NC2c3ccccc3C(=O)N2Cc2ccccc2Cl)c1 (configuration not stated) | 2.8 | 5052 | -6 | -15 | 2 | -10 | 9
CC1=CC(C)C(COC(N)=O)(COC(N)=O)C(C)C1 (configuration not stated) | 5.7 | 2152 | 3 | -2 | 1 | · | ·

Among those listed so far, 2 have a CF3 group:
SMILES | RN4220 kill | Autofluor counter | Sa ugtP lethal | PrP 5UTR inh | BJeLR lethal | Mtb hypoxia inh | Mtb hypoxia inh growth
CCOC(=O)C1(C(F)(F)F)N=C(N(C)C)OC(N(C)C)=N1 | 5.7 | 2190 | -1 | -19 | -3 | · | ·
Cc1cccc(NC(=O)CSCC(=O)N2CCN(c3cccc(C(F)(F)F)c3)CC2)c1 | -0.4 | 3920 | 9 | -8 | · | 1 | 7

High-throughput results: PubChem, several laboratories
